Rce1 inhib: blocks yeast Ras-converting enzyme; AID 2563; calls only; 290,000 compounds, 0.27% hits; Q03530; yeast membranes, quenched prenylated peptide cleavage fluorescence;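 active means fall in fluorescence gain of 50% or more versus controls, with final raw signal at or below 3038400; inconclusive means same 50% fall but final raw signal above 3038400; inactive means fall in fluorescence gain under 50%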;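 further: plate controls were neutral control wells for no effect and wells lacking membranes for full effect; tested at 10 µM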
Target sequence (Q03530 whole entry, looked up): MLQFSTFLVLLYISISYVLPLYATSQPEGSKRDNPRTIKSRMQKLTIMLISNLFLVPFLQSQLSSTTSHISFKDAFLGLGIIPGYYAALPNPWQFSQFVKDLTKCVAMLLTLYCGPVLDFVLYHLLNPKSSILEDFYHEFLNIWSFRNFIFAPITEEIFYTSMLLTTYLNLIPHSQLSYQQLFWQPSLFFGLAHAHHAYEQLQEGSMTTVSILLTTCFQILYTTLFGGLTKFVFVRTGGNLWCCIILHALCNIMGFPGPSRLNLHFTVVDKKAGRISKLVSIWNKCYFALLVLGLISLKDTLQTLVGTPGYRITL
eIF4H inh: inhibitors of RNA binding by human eIF4H; Q15056; eIF4H fluorescence polarization binding assay; inhibition, % at 35 µM; 290,000 compounds, 0.94% hits; AID 2012;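 active means 50% or more with normal probe brightness, or confirmed in later tests; inconclusive means above 50% with abnormal brightness, or retests that disagree; inactive means below 50% or failed in later tests; about a fifth of its hits are not listed in these tables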;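 further: calls also rest on retests at 20 µM and on dose response follow-up; 0% = protein and probe with vehicle and 100% = probe without protein; strong numbers were not always called active; many hits fall short of the cut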
CSC inhib: cancer stem cell inhibition | inhibition, % at 7.5 µM | cancer stem cell-like cells viability, luminescence | AID 2717 | 300,000 compounds, 1.1% hits;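 active means mean at 75% or more and at least half the replicates too; inconclusive means mean and replicates disagree; tested in HMLE shEcad cells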;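 further: 0% = median of negative and 100% = median of positive control wells; the first replicate is given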
PABP FP inh: PABP-poly(A) binding inhibition | P11940 | PABP-poly(A) RNA binding, fluorescence polarization | inhibition, % at 35 µM | 290,000 compounds, 1% hits | AID 2014;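 active means 50% or more with normal probe brightness, or confirmed in later tests; inconclusive means above 50% with abnormal brightness, or retests that disagree; inactive means below 50% or failed in later tests; about a fifth of its hits are not listed in these tables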;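 further: calls also rest on retests at 20 µM and on dose response follow-up; controls were probe without protein and protein plus probe with vehicle; some compounds called inactive have numbers as strong as hits; many hits fall short of the cut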
Yeast UUG start: alters start codon recognition fidelity in yeast; 350,000 compounds, 0.13% hits; activity score, % at 18.7 µM; S. cerevisiae UUG-firefly luciferase reporter, luminescence/redox ratio;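 active means replicate mean at a twofold rise or more, about +100% in these data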;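 further: firefly luciferase made from a UUG start codon reports start codon fidelity; reporter light over untreated wells divided by growth signal over untreated wells; some hits fall short of that in this replicate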
HIV Env fusion: blocks HIV Env-driven cell-cell fusion; HeLa-JRFL Env/CEM21 cell fusion, luciferase; inhibition, % at 12.3 µM; 360,000 compounds, 1.1% hits; AID 651610;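 active means mean replicate inhibition score of at least 50 and every replicate individually at or above 50; inconclusive means only one of the two criteria met; inactive means mean below 50 and not all replicates reaching 50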;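 further: 0% = plate neutral controls and 100% = maraviroc near 300 nM; one replicate is shown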
MT1-MMP act inh: inhibitors of human MT1-MMP activation; GFP/RFP ratio change, % at 20 µM; HT1080 RFP-PRO-GFP cells, GFP/RFP ratio fluorescence, overnight; percent of plate control window, DMSO zero; 360,000 compounds, 0.061% hits; P50281; AID 651647;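 active means GFP/RFP ratio change of at least 30% with cell ATP level not reduced by more than half and red fluorescence within 50% of control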; further: strong numbers were not always called active
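Test system: HT1080 cells expressing an RFP-PRO-GFP fluorescent reporter construct / Compound dosing: single-point 20 µM compound, 1% DMSO / Schedule: cells overnight before dosing, compound overnight, 37 °C, 5% CO2 / Evaluation: GFP/RFP fluorescence ratio / Control set: DMSO and RFP-L50D-GFP cell wells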
MT1-MMP act inh RFP: further read-out of MT1-MMP act inh, marked with its call; RFP signal change, %; measured here: RFP expression control read;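 0 = vehicle wells; hits needed this value within 50% of zero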
Numbers without * were called inactive; i = inactive; ? = inconclusive; nt = no result given; + = active, no number; & = joins results of further samples. This is a subset; rates above refer to the full screens.

SMILES | Rce1 inhib | eIF4H inh | CSC inhib | PABP FP inh | Yeast UUG start | HIV Env fusion | MT1-MMP act inh | MT1-MMP act inh RFP
Cc1sc2nc(CSc3ccccc3)nc(N3CCOCC3)c2c1C | i | 0 | 32 | -1 | nt | 19 | -4 | -4
COC(=O)c1cc2c(cc1[N+](=O)[O-])OCO2 | i | 7 | -4 | -9 | nt | 4 | -1 | -1
Cc1onc(C(=O)NC(C)c2ccccc2)c1[N+](=O)[O-] (stereo not drawn) | i | -10 | -17 | 8 | nt | 2 | 4 | 5
CC1CCC(NC(=O)CCNC(=O)c2ccccc2)CC1 (stereo not drawn) | i | 4 | -1 | 10 | nt | 7 | -2 | -2
COc1ccc(C(=O)NNC(=O)c2ccc3ccccc3n2)cc1 | nt | nt | 49 | nt | -13 | -14 | 6 | 5
O=C(Nc1ccc(C(=O)N2CCCC2)cc1)c1ccc2c(c1)OCO2 | i | -4 | 12 | -3 | -9 | nt | 6 | 8
COc1cccc(-c2nnn(CC(=O)O)n2)c1 | i | -6 | nt | 8 | nt | -25 | -5 | -3
Cc1cc(=O)n(-c2ccc3ccccc3n2)[nH]1 | i | 12 | 2 | 2 | -38 | -99 | 12 | 4
CCCc1cc(N2CCCC(C(=O)Nc3ccc(OC)cc3OC)C2)n2ncnc2n1 (stereo not drawn) | i | 4 | -9 | 5 | -14 | 35 | 2 | -2
Cc1cc(C(=O)NCCc2ccc(Cl)cc2)n(-c2ccccc2)n1 | i | -8 | -1 | -4 | -15 | 16 | 6 | -1
NNC(=O)CNC(c1ccccc1)c1cc(Br)ccc1NC(=O)CCN1CCOCC1 (stereo not drawn) | i | -1 | 9 | -16 | -11 | nt | 4 | 3
CC(=O)c1ccc(-n2c(SCC(=O)c3c[nH]c4ccccc34)nc3ccccc3c2=O)cc1 | nt | -2 | 2 | 5 | nt | -1 | -11 | -8
O=C(O)c1ccc(S(=O)(=O)Cc2ccccc2)cc1 | i | 2 | 3 | 1 | 12 | -17 | -1 | -2
COc1cccc(/C=N/Nc2snc(SC)c2C#N)c1O | i | 2 | 56 | -7 | nt | 17 | -20 | -39
CCCOc1ccc(-c2nc(-c3ccc([N+](=O)[O-])cc3)cs2)cc1 | i | -5 | 1 | 2 | -22 | -11 | 0 | 5
Cc1nc(NCCO)c2nnn(Cc3ccccc3F)c2n1 | i | -4 | -4 | 6 | 6 | nt | 1 | -1
O=C(/C=C/c1cccs1)c1cc(Cl)ccc1OC(=O)N1CCOCC1 | i | -12 | 15 | -8 | 1 | 48 | -13 | -10
C#CCOCCOCCOCCNc1nc(N2CCN(C(=O)CCCCCCCCCCNC(=O)Cn3cc(C[C@@H](C)O)nn3)CC2)nc(N2CCN(C(=O)CCCCCCCCCCNC(=O)[C@@H]([C@H](C)CC)n3cc(CCCCCN)nn3)CC2)n1 | nt | nt | 124* | nt | -5 | nt | -5 | -16
COc1ccc(OC)c(-c2nnc(SCC(=O)NC3CCCCC3)o2)c1 | i | 0 | -30 | 4 | 35 | 19 | 3 | 2
CCCCOc1ccccc1C(=O)NCC(=O)O | i | -14 | -8 | 6 | nt | nt | 0 | 4
CCOc1ccc(CNCCNC(=O)c2nonc2N)cc1 | i | -5 | -19 | -9 | nt | 9 | 1 | 4
Cc1ccccc1NC(=O)C(C)Sc1nnc(-c2ccncc2)n1CC1CCCO1 (stereo not drawn) | i | -1 | -47 | -5 | -18 | -13 | 0 | 5
Cc1ccc(NC(=O)CN(C)C(=O)C(C)OC(=O)c2ccccc2NCCO)cc1 (stereo not drawn) | i | nt | -3 | nt | 1 | -2 | 1 | 1
CCCCCCSc1cc(-c2nc3cc(C)ccn3c2NCCCC)ccc1OC | + | nt | 77* | nt | -12 | 21&19 | 4&21 | -7&-27
COC(=O)c1sccc1NC(=O)c1ccc(Cl)cc1 | i | -2 | 4 | 5 | -8 | 2 | -2 | 6

Remaining list, next part:
SMILES | Rce1 inhib | eIF4H inh | CSC inhib | PABP FP inh | Yeast UUG start | HIV Env fusion | MT1-MMP act inh | MT1-MMP act inh RFP
CC1(C)CCC(=O)N2CC[C@H]3C[C@H](OC(=O)Nc4ccc5c(c4)OCO5)C[C@@H]1[C@H]32 | i | -3 | -5 | 4 | -10 | nt | -12 | -2
CCOc1ccc(Br)cc1CNCCN1CCOCC1 | i | -7 | 10 | -4 | nt | -18 | 1 | 1
N#Cc1nc(-c2ccc(F)cc2)oc1NCCN1CCOCC1 | i | -11 | 0 | -2 | -18 | -3 | 3 | 4
CC1(C)OC(c2ccccc2)=C/C(=C/C=N/NC(=O)c2ccncc2)O1 | i | 12 | 3 | -8 | nt | 7 | 3 | 2
COC(=O)c1nnn(-c2ccsc2C(=O)OC)c1C(=O)OC | i | -1 | -13 | -12 | 0 | -6 | 1 | 4
COc1ccc2c(c1)[C@@H]1[C@H](CO2)[C@H](c2ccccc2)[C@]2(C)C(=O)NCC(=O)N12 | nt | nt | -8 | nt | -1 | -33 | -1 | -4
O=C(c1cccc(S(=O)(=O)N2CCOCC2)c1)N1CCCC(C(F)(F)F)C1 (stereo not drawn) | i | nt | -16 | nt | -11 | 3 | -2 | -3
O=S(=O)(c1ccccc1)N1N=C(c2ccccc2)CC1c1ccccc1F (stereo not drawn) | i | -1 | 11 | 2 | -4 | 27 | -1 | -2
Cc1nc(SCC(=O)NCc2ccco2)c2c(=O)n(C)c(=O)n(CC(C)C)c2n1 | i | -6 | -5 | 3 | nt | nt | -1 | -8
Cc1ccc2c(c1)[C@H]1[C@H](CO2)[C@H](c2ccccc2)[C@]2(C)C(=O)N(CC3CCCO3)CC(=O)N12 (stereo partly drawn) | nt | nt | -15 | nt | -5 | 110* | -2 | 3
O=S(=O)(c1ccc(-c2ccno2)s1)N1CCCCC1 | i | -5 | -5 | 3 | -2 | -4 | -10 | 2
COc1ccc(-c2nnc(NC(=O)c3ccc([N+](=O)[O-])o3)o2)c(OC)c1 | i | 15 | 52 | 8 | -25 | -18 | 5 | -6
Cc1ccccc1C(=O)Oc1cc(N)n(S(C)(=O)=O)n1 | i | 5 | -5 | -5 | nt | 11 | 1 | -1
Cc1cccc(C)c1NC(=O)CCn1cnc2ccccc2c1=O | i | 2 | 0 | -2 | nt | 8 | 0 | 2
CSc1ccccc1C(=O)NCc1ccc2c(c1)OCO2 | i | -7 | -3 | -8 | -5 | 2 | 3 | -1
COC(=O)CCCCCCCCC(=O)Nc1nc2ccccc2s1 | i | 3 | 4 | -1 | -13 | -61 | -4 | -2
O=C(Nc1ccc(C(F)(F)F)cc1)C1CCCN1S(=O)(=O)c1cccc2cccnc12 (stereo not drawn) | i | -9 | 6 | -3 | -2 | ? | 0 | -16
CC(=O)c1c(O)cc(C)n(-c2ccc(F)cc2)c1=O | i | 16 | nt | 13 | nt | -108 | 4 | -1
Cc1ccc(C(=O)Nc2ccccc2SCC2CSc3nc4ccccc4c(=O)n32)cc1 (stereo not drawn) | i | 3 | 25 | 5 | -5 | nt | -2 | 1
COc1ccc(-c2oc3cccnc3c2-c2ccc(OC)nc2)cc1 | i | -3 | 24 | -5 | -5 | 9 | 0 | 0
CN1CCN(C(=S)c2cn(Cc3ccccc3F)c3ccccc23)CC1 | i | -3 | 11 | 2 | -29 | 6 | -3 | 0
COC(=O)C1(O)CC(C(C)C)=NN1C(=O)c1ccccc1 (stereo not drawn) | i | -4 | nt | -15 | nt | 10 | 2 | 4
O=C(NC(=S)NNC(=O)c1ccccc1O)c1ccc(F)cc1 | i | 15 | 11 | 24 | -1 | 5 | 8 | -5
CCc1ccc(-n2c(Cn3nc(C(F)(F)F)cc3C)n[nH]c2=S)cc1 | i | -11 | 7 | -3 | -13 | -52 | -2 | 1
O=C1N=C(N2CCOCC2)SC1=Cc1ccco1 | nt | nt | nt | nt | -11 | -12 | 5 | 8

Some of these compounds in order of their number in MT1-MMP act inh RFP, lowest first.
SMILES	Rce1 inhib	Yeast UUG start	HIV Env fusion	MT1-MMP act inh	MT1-MMP act inh RFP
O=S(=O)(c1ccccc1)N1N=C(c2ccccc2)CC1c1ccccc1F (stereo not drawn)	i	-4	27	-1	-2
CC(=O)c1c(O)cc(C)n(-c2ccc(F)cc2)c1=O	i	nt	-108	4	-1
COC(=O)c1nnn(-c2ccsc2C(=O)OC)c1C(=O)OC	i	0	-6	1	4

The results go on:
SMILES | Rce1 inhib | eIF4H inh | CSC inhib | PABP FP inh | Yeast UUG start | HIV Env fusion | MT1-MMP act inh | MT1-MMP act inh RFP
COc1ccc(Oc2ccccc2C#N)cc1 | i | -5 | 8 | -15 | nt | 1 | -5 | 3
NCCCC(=O)N1c2ccccc2Sc2ccc(Cl)cc21 | i | -12 | -4 | -4 | -9 | 10 | -5 | 1
Cc1cc(C(=O)CSc2nnc(-c3cccc(F)c3)n2N)c(C)n1Cc1ccc2c(c1)OCO2 | i | -10 | 12 | -12 | nt | ? | -4 | -16
COc1cc2c(cc1OC)CN(C(=O)C1CCN(S(=O)(=O)c3ccccc3F)CC1)CC2 | i | -9 | 9 | -4 | -8 | 0 | 0 | 2
CCON1C(=O)CN(C(=O)OC)C1c1ccc(Cl)cc1Cl (stereo not drawn) | i | -6 | -9 | 10 | -7 | -120 | -1 | 0
COC(=O)c1ccccc1NC(=O)c1ccccc1N(C)S(=O)(=O)c1ccccc1 | i | -3 | 3 | 8 | -13 | 13 | 1 | 3
CC1CCN(c2c(NCC3CCC(C(=O)N4CCCCC4)CC3)c(=O)c2=O)CC1 (stereo not drawn) | i | -4 | 3 | 2 | -1 | 15 | -5 | 1
O=C(COC(=O)c1ccc(OC(F)(F)F)cc1)NCCN1C(=O)CSC1=O | nt | nt | -17 | nt | -10 | -1 | -2 | -1
COc1ccccc1CCNC(=O)CSc1nc(=O)[nH]c2c1CCC2 | i | nt | -6 | nt | 2 | 5 | -4 | -5
Cc1ccc[n+](CC(=O)c2ccc(NC(=O)c3ccccc3)cc2)c1C | nt | nt | -1 | nt | 1 | -12 | 0 | -2
CCN(CC(=O)Nc1c(F)cccc1F)C(=O)Cc1sc(C)nc1-c1ccc(F)cc1 | nt | nt | nt | nt | -14 | -9 | 2 | 3
COc1ccc(NC(=O)CSc2nc3c(c(=O)n2-c2ccc(F)cc2)SCC3)c(OC)c1 | i | -2 | -7 | 16 | -6 | nt | -2 | 1
FC(F)Sc1ccc(-n2c(-c3ccc(Cl)cc3)c[n+]3c2CCC3)cc1 | i | 6 | 7 | 17 | nt | 9 | 2 | -9
COc1ccc([C@@H]2C[C@H]3[C@@H](CN2S(=O)(=O)c2ccccc2)C(=O)C[C@@H](c2ccc(OC)cc2)N3S(=O)(=O)c2ccccc2)cc1 | nt | nt | nt | nt | -1 | -45 | 3 | 0
CC(=O)c1sc(NC(=O)COc2ccc([N+](=O)[O-])cc2)nc1C | i | -1 | 5 | -8 | -8 | -4 | -1 | -2
O=C(Nc1nc(-c2ccc3c(c2)OCCO3)cs1)C1CCCC1 | i | -6 | 12 | 2 | nt | -128 | -1 | -5
Cc1nn(C)cc1-c1n[nH]c(=S)n1-c1ccc(Cl)cc1 | i | 3 | 7 | 6 | -19 | -12 | 0 | 8
CC1Cc2ccccc2N1C(=S)Nc1ccc(S(N)(=O)=O)cc1 (stereo not drawn) | i | 8 | 10 | -1 | nt | -8 | 15 | 10
O=C(CN(CC1CCCO1)C(=O)CNS(=O)(=O)c1ccc(F)cc1)NCCc1ccccc1 (stereo not drawn) | i | -2 | -3 | -5 | -8 | 0 | 5 | 3
Cc1ccc2[nH]c(-c3ccccc3)cc(=O)c2c1 | i | 9 | 11 | 4 | -12 | i | 15 | -1
CC(C)c1nnc(NC(=O)CCC(=O)NC2CC2)s1 | i | -13 | -16 | 10 | -14 | -11 | 3 | 7
